A1 inh: inhibitors of A1; MEF A1-2A-BIM cells, caspase-Glo luminescence, 3 h; percent of clofoctol signal, DMSO as zero; AID 2241; caspase activation, % (no concentration beside the values); 0.51% of 21,000 active;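 active means most replicate scores above 10, or exactly half above 10 with mean activity above 10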;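 further: effector caspase 3 and 7 activity cleaving a DEVD luciferin substrate; 50 nL library stock added to about 30 µL; numbers are from one replicate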
BJeLR viab HTS: lowers viability of BJeLR cells; viability loss activity score, % (no concentration beside the values); 0.64% of 30,000 active; BJeLR fibroblasts viability, CellTiterGlo ATP luminescence, 48 h; HRASV12, hTERT and SV40 LT/ST transformed; in the data active means viability loss activity score above about 50%; about a fifth of its hits are not listed in these tables;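 further: higher score means fewer live cells and less ATP luminescence; stock transfer was 50 or 100 nL into about 30 µL; 0% = vehicle wells and 100% = a reference killing control; one replicate is shown; the record names a cut of 85%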
* marks the source's active call; other numbers are inactive results. These rows are one share of the data; count on the stated rates, not on these rows.

`COc1ccc(S(=O)(=O)N(C)C[C@@H]2Oc3c(NC(=O)c4cnccn4)cccc3C(=O)N([C@H](C)CO)C[C@H]2C)cc1` gave BJeLR viab HTS -1.8.
Screening Cc1cc(C(=O)Nc2ccc(C(C)C)cc2)n(-c2ccccc2)n1 returned BJeLR viab HTS -0.5.
`COc1ccc(NC(=O)N(C)C[C@H]2Oc3ccc(NC(=O)CCN4CCOCC4)cc3C(=O)N([C@@H](C)CO)C[C@@H]2C)cc1` gave A1 inh 0.2 and BJeLR viab HTS -0.1.
C[C@H]1CN([C@@H](C)CO)C(=O)c2cc(NC(=O)CCCN(C)C)ccc2O[C@@H]1CN(C)C(=O)Nc1cccc2ccccc12 was read as A1 inh -0.5 and BJeLR viab HTS -0.2.
For CN(C(=O)CS(=O)(=O)c1cn(CC(=O)N2CCOCC2)c2ccccc12)c1ccccc1 the results were A1 inh -0.4 and BJeLR viab HTS 1.6.
O=c1oc2ccc3ccccc3c2cc1-c1nn(-c2ccccc2)cc1/C=N/O was read as A1 inh 1.7 and BJeLR viab HTS -2.6.
Screening Cc1noc(C)c1NC(=O)Nc1ccc2c(c1)C(=O)N([C@@H](C)CO)C[C@@H](C)[C@H](CN(C)C(=O)NC(C)C)O2 returned A1 inh -0.5 and BJeLR viab HTS 15.9.
Screening COc1ccc(-c2cc3nc(C)cc(C)n3n2)cc1 returned A1 inh -5.4 and BJeLR viab HTS 3.6.
Screening O=C(NCc1ccccn1)C(c1ccccc1)c1ccccc1 returned A1 inh -0.5 and BJeLR viab HTS -0.4.
COC(=O)C1=CN(c2cccc(C(F)(F)F)c2)C=C(C(=O)OC)C1c1ccsc1 was read as A1 inh 0.3 and BJeLR viab HTS 0.5.
C[C@H]1CN([C@@H](C)CO)C(=O)c2cc(NC(=O)CCN3CCOCC3)ccc2O[C@H]1CN(C)S(=O)(=O)c1cccs1 was read as A1 inh -0.3 and BJeLR viab HTS -2.5.
CCOC(=O)C(C(=O)Nc1ccc(Br)cc1)C1CCCCC1 (stereo not given) was read as A1 inh 0.0 and BJeLR viab HTS -1.1.

Quoted at random: 2 compounds from above, in no set order.
C[C@H]1CN([C@@H](C)CO)C(=O)c2cc(NC(=O)CCN3CCOCC3)ccc2O[C@H]1CN(C)S(=O)(=O)c1cccs1 was read as A1 inh -0.3 and BJeLR viab HTS -2.5.
COC(=O)C1=CN(c2cccc(C(F)(F)F)c2)C=C(C(=O)OC)C1c1ccsc1 was read as A1 inh 0.3 and BJeLR viab HTS 0.5.

Next section.
For C[C@@H]1CN([C@H](C)CO)C(=O)c2cc(NC(=O)CCC(F)(F)F)ccc2O[C@@H]1CN(C)S(C)(=O)=O the results were A1 inh 0.3 and BJeLR viab HTS -3.7.
Screening C[C@H](CO)N1C[C@H](C)[C@@H](CN(C)S(=O)(=O)c2ccc(Cl)cc2)Oc2ccc(NC(=O)Cc3ccccc3)cc2C1=O returned A1 inh 0.6 and BJeLR viab HTS -4.9.
For C[C@@H]1CN([C@H](C)CO)C(=O)c2cccc(NC(=O)c3ccncc3)c2O[C@H]1CN(C)Cc1ccc(Cl)c(Cl)c1 the results were BJeLR viab HTS 2.8.
`CC(C)n1c(SCC(N)=O)nc2c(oc3ccccc32)c1=O` gave A1 inh 0.1 and BJeLR viab HTS -2.2.
`C[C@@H]1CN([C@@H](C)CO)C(=O)c2cc(NC(=O)Cc3ccccc3)ccc2O[C@H]1CN(C)C(=O)Nc1cccc2ccccc12` gave A1 inh 0.6 and BJeLR viab HTS 2.8.
`C[C@H](CO)N1C[C@H](C)[C@@H](CN(C)Cc2ccc(C(=O)O)cc2)Oc2c(NC(=O)Nc3ccccc3)cccc2C1=O` gave BJeLR viab HTS 8.2.
`Cc1sc(NC(=O)c2ccccc2)c(C(=O)N2CCCCC2)c1C` gave A1 inh 0.4 and BJeLR viab HTS 3.3.
S=C(/N=C(/Nc1ccccc1)c1ccccc1)Nc1ccccc1 was read as BJeLR viab HTS -3.2.
`C[C@@H]1CN([C@H](C)CO)C(=O)c2cccc(NC(=O)c3cnccn3)c2O[C@H]1CN(C)CC1CC1` gave BJeLR viab HTS 2.5.
`CC(C)N1C(=O)S/C(=C\c2ccccc2OCc2ccc(C(=O)O)cc2)C1=O` gave BJeLR viab HTS -2.5.
Screening COc1cccc(CN(C(=S)NCc2ccccc2)c2ccc(F)c(Cl)c2)c1O returned A1 inh -0.7 and BJeLR viab HTS -0.3.
C[C@H]1CN([C@@H](C)CO)C(=O)c2cc(NC(=O)Nc3ccc(F)cc3)ccc2O[C@H]1CN(C)Cc1ccc(C(=O)Nc2ccccc2N)cc1 was read as BJeLR viab HTS 4.9.
Screening CC(=O)Nc1cccc(-n2nnc(SCc3cc(Cl)cc4c3OCOC4)n2)c1 returned BJeLR viab HTS 7.2.
`COC(=O)c1scc2c(Oc3ccccc3C(F)(F)F)cc(C(F)(F)F)nc12` gave A1 inh 0.5 and BJeLR viab HTS -0.5.
O=c1occ(CO)c(O)c1CN1CCc2ccccc2C1 was read as A1 inh 0.1 and BJeLR viab HTS 9.0.
Cc1onc(NC(=O)NC(=O)c2ccccc2F)c1Br was read as A1 inh -0.7 and BJeLR viab HTS 0.6.
COc1ccc(NC(=O)Nc2cccc3c2O[C@@H](CN(C)C(=O)Nc2cccc4ccccc24)[C@@H](C)CN([C@H](C)CO)C3=O)cc1 was read as BJeLR viab HTS -3.2.
Cc1nnn(C23CC4CC(CC(CC(=O)Nc5ccc(Cl)cc5)(C4)C2)C3)n1 was read as BJeLR viab HTS -2.2.
For Cc1noc(C)c1S(=O)(=O)NCCN1CCN(c2ccccc2F)CC1 the results were BJeLR viab HTS -0.8.
Screening COC(=O)CCC(=O)c1oc2ccc(OC)cc2c1N returned A1 inh -2.7 and BJeLR viab HTS -4.5.
For CCOC(=O)c1sc2ccc(S(=O)(=O)N3CC(C)CC(C)C3)cc2c1N (stereo not given) the results were A1 inh -1.0 and BJeLR viab HTS 4.5.
CCc1ccc(NC(=O)C(CC)Sc2nc3nccnc3c(=O)n2CCc2ccccc2)cc1 (stereo not given) was read as A1 inh 1.3 and BJeLR viab HTS -0.5.
Screening CCCCC1(CO)C(=O)N(c2ccccc2)N(c2ccccc2)C1=O returned A1 inh 0.0 and BJeLR viab HTS -3.1.
For Cc1ccc(NC(=O)CN2C(=O)S/C(=C/c3ccc(C)o3)C2=O)cc1 the results were A1 inh 1.5 and BJeLR viab HTS 2.4.
C[C@@H]1CN([C@H](C)CO)C(=O)c2cccc(NC(=O)Nc3ccc4c(c3)OCO4)c2O[C@H]1CN(C)Cc1ccc(C(=O)O)cc1 was read as BJeLR viab HTS -1.2.
Screening Cc1ccc(Cl)cc1N(C)C(=O)c1cc2c(C)nc3ccccc3c2o1 returned BJeLR viab HTS -2.7.
`CC(c1ccccc1)n1c(OC(=O)N(C)C)nnc1SCC(=O)c1ccc2c(c1)OCCO2` (stereo not given) gave A1 inh -0.2 and BJeLR viab HTS -1.6.
Screening C[C@H](CO)N1C[C@H](C)[C@H](CN(C)S(=O)(=O)c2ccc(F)cc2)Oc2c(NS(=O)(=O)c3ccc(F)cc3)cccc2C1=O returned BJeLR viab HTS -1.3.
For COc1ccc(NC(=O)Nc2cccc3c2O[C@H](CN(C)S(=O)(=O)c2ccc(Cl)cc2)[C@H](C)CN([C@H](C)CO)C3=O)cc1 the results were BJeLR viab HTS -5.2.
`O=C1c2ccccc2C(=Cc2cccs2)c2ccccc21` gave BJeLR viab HTS 1.5.
Screening C[C@@H]1CN([C@@H](C)CO)C(=O)c2cc(NS(=O)(=O)c3ccc(F)cc3)ccc2O[C@@H]1CN(C)Cc1ccc2c(c1)OCO2 returned A1 inh -0.2 and BJeLR viab HTS 1.1.
COc1ccc(CN(C)C[C@H]2Oc3ccc(NS(=O)(=O)c4ccc(Cl)cc4)cc3C(=O)N([C@H](C)CO)C[C@H]2C)cc1 was read as A1 inh 0.0 and BJeLR viab HTS -1.7.
Screening CC(C)Cc1ccc(S(=O)(=O)N2c3cc(F)ccc3CCC2C)cc1 (stereo not given) returned BJeLR viab HTS 1.0.
`C[C@H](CO)N1C[C@H](C)[C@H](CN(C)Cc2ccc3c(c2)OCO3)Oc2c(NC(=O)Nc3ccc4c(c3)OCO4)cccc2C1=O` gave BJeLR viab HTS 1.3.
For COCCn1c(=O)c(C#N)cc2c(=O)n3ccccc3nc21 the results were A1 inh 0.7 and BJeLR viab HTS -1.8.
`CC(C)C(=O)NC1CCCCCCCCCCC1` gave A1 inh 0.4 and BJeLR viab HTS -1.5.
`Cc1ccc(SCC(=O)c2ccc(CC(=O)O)s2)cc1` gave A1 inh -2.7 and BJeLR viab HTS 3.7.
`Cc1noc(C)c1S(=O)(=O)Nc1ccc2c(c1)C(=O)N([C@H](C)CO)C[C@@H](C)[C@H](CN(C)S(=O)(=O)c1ccc(Cl)cc1)O2` gave A1 inh -0.2 and BJeLR viab HTS 2.0.
For C[C@H]1CN([C@@H](C)CO)C(=O)c2cccc(NC(=O)c3ccncc3)c2O[C@@H]1CN(C)C the results were BJeLR viab HTS -5.2.
Cc1ccc(S(=O)(=O)N(C)C[C@@H]2Oc3ccc(NC(=O)CCCN(C)C)cc3C(=O)N([C@H](C)CO)C[C@H]2C)cc1 was read as A1 inh 0.4 and BJeLR viab HTS 7.1.
`C[C@H]1CN([C@@H](C)CO)C(=O)c2cc(NC(=O)c3ccncc3)ccc2O[C@@H]1CN(C)C(=O)Nc1ccc2c(c1)OCO2` gave A1 inh 0.1 and BJeLR viab HTS -1.4.
COc1ccc(S(=O)(=O)N(C)C[C@@H]2Oc3ccc(NC(=O)Nc4cccc5ccccc45)cc3C(=O)N([C@H](C)CO)C[C@H]2C)cc1 was read as A1 inh -0.3 and BJeLR viab HTS 1.9.
`C[C@H](CO)N1C[C@H](C)[C@H](CN(C)Cc2ccc(-c3ccccc3)cc2)Oc2ccc(NC(=O)C3CCCCC3)cc2C1=O` gave A1 inh -0.5 and BJeLR viab HTS 1.2.
For Clc1ccc(-c2ncc3ccccn23)cc1 the results were A1 inh -4.9 and BJeLR viab HTS -4.1.
Screening COc1cc(Br)cc(/C=N/N(CCO)C2=NS(=O)(=O)c3ccccc32)c1OC returned A1 inh 0.1 and BJeLR viab HTS -1.6.
c1cc(-c2nc(-c3ccc4c(c3)OCCCO4)cs2)ccc1-c1csnn1 was read as A1 inh 0.7 and BJeLR viab HTS 3.1.
Screening C[C@H]1CN([C@@H](C)CO)C(=O)c2cccc(NC(=O)C3CC3)c2O[C@H]1CN(C)Cc1ccc2c(c1)OCO2 returned BJeLR viab HTS 2.0.
`Cc1nnc(SCC(=O)N2CCOCC2)s1` gave A1 inh 0.3 and BJeLR viab HTS 2.5.

In the list so far, three have bromine.
CCOC(=O)C(C(=O)Nc1ccc(Br)cc1)C1CCCCC1 (stereo not given) was read as A1 inh 0.0 and BJeLR viab HTS -1.1.
Cc1onc(NC(=O)NC(=O)c2ccccc2F)c1Br was read as A1 inh -0.7 and BJeLR viab HTS 0.6.
Screening COc1cc(Br)cc(/C=N/N(CCO)C2=NS(=O)(=O)c3ccccc32)c1OC returned A1 inh 0.1 and BJeLR viab HTS -1.6.

(more compounds)
`O=C(O)Cn1c(=O)oc2ccccc21` gave A1 inh 0.9 and BJeLR viab HTS -3.1.
Screening O=C(COC(=O)C1CC=CCC1C(=O)OCC(=O)c1ccc(Cl)cc1)c1ccc(Cl)cc1 (stereo not given) returned A1 inh 0.1 and BJeLR viab HTS -0.6.
`C[C@@H]1CN([C@@H](C)CO)C(=O)c2cc(NC(=O)NC3CCCCC3)ccc2O[C@H]1CN(C)C(=O)NC1CCCCC1` gave A1 inh -1.4 and BJeLR viab HTS -0.8.
CC(=O)NCCc1c[nH]c2ccc(O)cc12 was read as A1 inh 0.1 and BJeLR viab HTS -7.3.
For C[C@@H]1CN([C@H](C)CO)C(=O)c2cccc(NC(=O)Nc3ccc4c(c3)OCO4)c2O[C@@H]1CN(C)Cc1ccc(-c2ccccc2)cc1 the results were BJeLR viab HTS -1.4.
For CNC[C@H]1Oc2c(NS(=O)(=O)c3ccc(Cl)cc3)cccc2C(=O)N([C@H](C)CO)C[C@@H]1C the results were BJeLR viab HTS -1.8.
O=C1/C(=C/c2ccc(N3CCOCC3)cc2)CCC1C1CCCC1 (stereo not given) was read as BJeLR viab HTS 4.3.
CSc1nnc2nc3c(nn12)c1ccccc1n3C was read as BJeLR viab HTS -0.3.
Cc1ccc(/C=C/C(=O)N(Cc2ccccc2)c2ccccn2)cc1 was read as A1 inh -0.5 and BJeLR viab HTS 5.8.
For CN(C(=O)c1cn(C2CCCC2)c(=O)c2c1c1ccccc1n2C)c1cccc(C(F)(F)F)c1 the results were BJeLR viab HTS -8.3.
C[C@@H]1CN([C@H](C)CO)C(=O)c2cc(NC(=O)Cn3cnnn3)ccc2O[C@@H]1CN(C)Cc1ccc(C(=O)O)cc1 was read as A1 inh 1.6 and BJeLR viab HTS 4.7.
C[C@H]1CN([C@@H](C)CO)C(=O)c2cc(NC(=O)Cn3cnnn3)ccc2O[C@H]1CN(C)C(=O)Nc1cccc2ccccc12 was read as A1 inh 0.1 and BJeLR viab HTS 0.8.
Cc1ccc(S(=O)(=O)N2CCN(c3nc(NC4CCCC4)c4ccccc4n3)CC2)cc1 was read as A1 inh -1.1 and BJeLR viab HTS -9.3.
For COc1ccc(NC(=O)Nc2ccc3c(c2)C(=O)N([C@@H](C)CO)C[C@H](C)[C@H](CN(C)Cc2ccc(C(F)(F)F)cc2)O3)cc1 the results were A1 inh 1.1 and BJeLR viab HTS -0.1.
COc1ccc(NC(=O)N(C)C[C@H]2Oc3c(cccc3N(C)C)C(=O)N([C@H](C)CO)C[C@H]2C)cc1 was read as BJeLR viab HTS -1.2.

For reference, part of the list above:
`O=C(O)Cn1c(=O)oc2ccccc21` gave A1 inh 0.9 and BJeLR viab HTS -3.1.
Screening O=C(COC(=O)C1CC=CCC1C(=O)OCC(=O)c1ccc(Cl)cc1)c1ccc(Cl)cc1 (stereo not given) returned A1 inh 0.1 and BJeLR viab HTS -0.6.

Bioassay records: PubChem BioAssay, Broad Institute
